High-throughput results deposited in PubChem BioAssay by several laboratories.
Sa ugtP lethal = compounds lethal to S. aureus RN4220 ugtP deletion mutant | OD600 growth, 16 h; some inactives read as strong as hits | growth inhibition, % (test concentration not listed) | 330,000 compounds, 0.54% hits | AID 1259309;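 active = z-score under -3 and OD600 up to 0.15 on both plates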;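 also: plate controls were untreated wells for no effect and antibiotic for full effect; wells of about 80 µL received 100 nL stock; the first replicate is given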
Mtb hypoxia inh = reduces hypoxia-regulated biosensor signal in M. tuberculosis | M. tuberculosis hypoxia-regulated fluorescent reporter, fluorescence | fluorescence inhibition, % (test concentration not listed) | 300,000 compounds, 0.1% hits;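 active = 35 to 45% if threefold the growth effect, above 45% if 1.5-fold the growth effect; inactive = the rest, general growth blockers included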;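 also: wells of about 50 µL received 100 nL stock; 0% = vehicle wells and 100% = reference inhibitor wells; whole bacteria with a GFP reporter of the hypoxia response; strong numbers were not always called active; many hits fall short of the cut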
RN4220 kill = S. aureus RN4220 growth inhibition. OD600, 16 h. inhibition, % (concentration not given with the values). 330,000 compounds, 0.33% hits. AID 1259311;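 active = z-score of -3 or lower and OD600 up to 0.18 on both plates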;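 also: plate controls were untreated cells for no effect and reference antibiotic for full effect; stock transfer was 100 nL into about 80 µL; one replicate is shown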
Bead autofluor = compound fluorescence in toxin protease inhibitor counterscreen; 360,000 compounds, 3.1% hits; compound autofluorescence counterscreen, microsphere flow cytometry; stronger effect = higher value; fluorescence intensity (concentration not given with the values); AID 624483;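 active = at least 3 SD above the mean of all compounds, about 16000 in these data; inconclusive = too few beads counted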;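 also: 100 nL of 1 mM stock went into each well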
BJeLR viability = BJeLR cell viability loss. BJeLR (HRASV12) viability, CellTiter-Glo ATP luminescence, 48 h; reference of the scale not given here. inhibition, % (test concentration not listed). 300,000 compounds, 0.17% hits. AID 1554;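 active = replicate mean above 50%; inconclusive = above 50% but judged a plate artefact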;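 also: 50 nL library stock added to about 25 µL; numbers are from one replicate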
PrP UTR inh = suppresses PrP 5' UTR mRNA reporter expression | cell-based PrP 5' UTR mRNA reporter, plate reader | 340,000 compounds, 0.35% hits | AID 488862 | inhibition, % (no concentration beside the values);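 active = every replicate at 50% or more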;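 also: 0 = median of the neutral control wells; tested in H4 reporter cells; numbers are from one replicate; inactives centre near -14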
Mtb hypoxia inh growth = second read-out of Mtb hypoxia inh, no call of its own (marks repeat the call); growth inhibition, %; measured here: M. tuberculosis growth (absorbance);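 0% = vehicle and 100% = reference antibiotic; read after six days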
* hit, by the source's call; ? = inconclusive; / = no result given.

SMILES	Sa ugtP lethal	Mtb hypoxia inh	Mtb hypoxia inh growth	RN4220 kill	Bead autofluor	BJeLR viability	PrP UTR inh
CCc1ccc(NC(=O)C(C)OC(=O)CCN2C(=O)C3CC=CCC3C2=O)cc1 (stereo unspecified)	3	-12	0	4.5	6089	/	-15
COc1cccc2c(=O)cn[nH]c12	5	-8	12	2.0	2462	8	-17
O=C(Cc1n[nH]c(=O)c2ccccc12)OCC(=O)c1ccccc1Cl	-2	-11	3	-1.2	5328	2	-23
COc1ccc(N2CCN(C(=O)c3ccc4c(=O)n(CCc5ccc(OC)c(OC)c5)c(=O)[nH]c4c3)CC2)cc1	3	-4	4	9.7	3924	-4	-29
O=C(Nc1ccccc1C(=O)NCc1cccnc1)c1ccccc1Cl	/	/	/	/	6734	8	-20
CSCC(=O)N1CCc2ccc(NC(=O)c3ccccc3Cl)cc2C1	7	3	7	2.8	3894	-3	-29
CCOC(=O)n1c(O)c(N=NC(N)=S)c2cc(C)ccc21	0	3	2	3.8	3868	11	-15
CCN(CC)CCCNC(=O)CCn1nc(-c2ccc(Cl)cc2)ccc1=O	3	9	3	-0.8	3706	-2	-16
O=C(NCc1ccccc1)C1Cc2ccccc2CN1C(=O)c1ccco1 (stereo unspecified)	3	11	10	-4.3	3682	5	-11
O=C(CN(C(=O)CCC(=O)Nc1ccccn1)c1cccc(F)c1)NCc1ccco1	4	-5	-2	10	5289	9	-24
NS(=O)(=O)c1ccc(NN=C/C=C/c2ccccc2[N+](=O)[O-])cc1	11	12	4	5.4	/	/	/
Cn1nnnc1Sc1ncnc2scc(-c3ccc([N+](=O)[O-])cc3)c12	3	5	15	13	3779	/	-34
COc1ccc(S(=O)(=O)NC(C)C(=O)Nc2ccccc2)cc1Cl (stereo unspecified)	-5	5	16	-1.9	6053	-5	-7
O=C(c1ccccc1)N1CCN(C(=S)NCc2ccco2)CC1	11	6	6	1.3	3965	-2	-17
CCc1ccc(NC(=O)[C@H](C)NC(=O)C2CCN(C(=O)[C@@H](N)C(C)C)CC2)cc1	2	0	-8	0.4	3213	-5	-5
CC(/C=C/c1ccccc1F)=NNC(=O)c1ccccc1	6	1	2	5.7	/	/	/
COc1ccc(CN2CCNC(=O)C2CC(=O)N2CCCCO2)c(OC)c1 (stereo unspecified)	9	9	8	1.9	2509	0	2
COCC(=O)Nc1nc2ccc(S(C)(=O)=O)cc2s1	1	5	5	-2.0	3713	-3	-34
CCOc1cc(/C=N/NC(=O)Cc2ccc(C(F)(F)F)cc2[N+](=O)[O-])ccc1O	/	/	/	/	10306	-7	-2
CCN=C(NCC)SC1CC(=O)N(c2ccccc2)C1=O (stereo unspecified)	0	3	0	3.3	16042	-3	-44
CCn1c(O)c(C=NCCN2CCOCC2)c(=O)n(CC)c1=S	3	2	-12	0.2	3895	2	-5
Cc1nnsc1C(=O)N/N=C/c1ccccc1	/	/	/	/	2619	-6	-3
O=C(N/N=C/c1ccc(O)cc1)/C(=C/c1ccccc1)CCO	/	/	/	/	6769	-8	-25
COC1=C(C)C(O)=C(C(=O)C=Cc2ccccc2)C(=O)C1(C)C	3	-6	5	8.2	/	/	/
Cc1[nH]n(-c2ccccc2)c(=O)c1N=Nc1cccc([N+](=O)[O-])c1	/	/	/	/	4038	-1	-13
C=CCOn1c(=O)c(-c2ccc(OCC)cc2)[n+]([O-])c2ccccc21	5	15	1	1.3	3776	-14	-26
Cc1cccc(C(C)C)c1NC(=O)C(C)OC(=O)Cc1n[nH]c(=O)c2ccccc12 (stereo unspecified)	1	-2	1	3.8	6173	9	-102
CCc1ccc(NC(=O)c2sc3nc(C)nc(N4CCN(c5ccccn5)CC4)c3c2C)cc1	12	7	-2	-1.2	3874	-1	-26
COC(=O)c1ccsc1NC(=O)c1ccco1	-11	17	6	5.1	6653	-14	-82
COC(=O)c1c(NC(=O)CN2C(=O)c3ccccc3C2=O)sc(Cc2ccc3c(c2)OCO3)c1C	-1	4	5	2.4	5895	3	-11
Oc1ccccc1-c1cc(C(F)(F)C(F)F)[nH]n1	-19	9	7	4.7	9353	5	-54
COc1ccc(N2C(=NC(C)=O)SC3CS(=O)(=O)CC32)cc1OC (stereo unspecified)	3	/	/	-2.8	4946	0	-15
Cc1cccc(-n2cc(CN(C)Cc3nccn3C)c(-c3cccc(F)c3)n2)c1	-14	-19	-5	-4.0	2144	-5	-16
Fc1ccccc1CSc1nncn1NC/C=C/c1ccccc1	-12	7	-1	-8.2	3260	4	-71
OCCN1CN=C(Nc2nc3ccccc3o2)NC1	1	/	/	-1.8	3421	0	-20
CCC[n+]1cn(/C(C(=S)Nc2cccc(Cl)c2C)=C(/[O-])c2ccc(OC)c(OC)c2)c2ccccc21	6	3	5	3.0	3534	-2	-10
CCc1ccc(CN(C)Cc2nc(Cc3ccccc3)no2)nc1	14	4	11	3.7	3277	8	-9
Cc1cc(C)cc(N2CCN(C(=O)N3CCOCC3)CC2)c1	8	/	/	-3.7	4269	0	-23
Cn1c(=O)c2c(nc(SCC(=O)N3CCOCC3)n2C)n(C)c1=O	2	13	9	1.0	5276	-11	3
CN(C)CCCN1C(=O)C(=O)C(=C(O)c2ccncc2)C1c1ccccc1 (stereo unspecified)	-3	-1	9	4.1	/	/	/
CC1CCCN(S(=O)(=O)c2ccc(NC(=O)c3cccc(-n4cnnn4)c3)cc2)C1 (stereo unspecified)	-7	10	10	4.9	20061*	0	-49
CCOC(=O)N1CCN(C(=O)C2CC(c3ccccc3OC)=NO2)CC1 (stereo unspecified)	0	2	0	-0.2	20183*	-4	-26
Cc1ccc(C=NNC(=O)CCCOc2ccc(Cl)cc2Cl)cc1[N+](=O)[O-]	-26	2	6	-3.6	/	/	/
CCCc1c(C(=O)NN=C/C(C)=C/c2ccccc2)nnn1-c1nonc1N	-2	3	7	5.1	/	/	/
CCC(=O)Nc1ccc2c(c1)nc1n2CCN(C2CCCCC2)C1	3	3	2	1.6	3441	-1	-18
CN(C)c1ccc(C=NOC(=O)Nc2ccccc2Cl)cc1	0	1	1	9.9	/	/	/
CCc1ccc(C(=O)NNC(=O)CC2OC(=O)c3ccccc32)cc1 (stereo unspecified)	-1	1	-1	4.3	6395	6	-26
O=[N+]([O-])c1ccc(Cl)c(S(=O)(=O)NC2=NCCC2)c1	7	4	-4	4.0	/	/	-19
O=C(OCc1cc(=O)n2cc(Br)ccc2n1)c1ccc(Cl)c(S(=O)(=O)NCc2ccccc2)c1	3	-2	-2	2.4	2414	-3	-9
CCCCc1ccc(-n2nnnc2SCC(=O)Nc2cc(OC)c([N+](=O)[O-])cc2C)cc1	-7	10	10	-4.8	2622	5	-29
CN(C(=O)c1cn2ccccc2n1)c1c(N)n(Cc2ccccc2)c(=O)[nH]c1=O	7	3	-5	1.7	6313	5	-11
COC(=O)C1=C(c2cccc(C#N)c2)CC2CCC1N2C(=O)N1CCCC1 (stereo unspecified)	3	10	9	4.0	/	/	/
Cc1cccc(OCC(=O)N(Cc2ccco2)C2CCS(=O)(=O)C2)c1C (stereo unspecified)	-3	4	4	4.9	5834	2	5
O=C(c1ccc(=O)n(Cc2ccccc2)n1)N1CCN(C/C=C/c2ccccc2)CC1	6	5	2	4.6	4384	-3	-6
COc1cc(CC(=O)N(C)CC(=O)Nc2ccc(Cl)c(C(F)(F)F)c2)cc(OC)c1OC	-2	10	4	0.6	5214	1	-13
Nc1ccc(N2CCCCC2)c(Cl)c1	3	11	2	-1.4	2561	4	-14
O=c1c2ccccc2nc(/C=C/c2ccc(O)cc2)n1-c1ccc(O)cc1	-3	-9	-4	1.7	3747	4	5
CCCN1CCC2c3cc(O)ccc3CCC21 (stereo unspecified)	3	5	-2	6.8	/	/	/
CCOc1ccc2c(c1)OC(c1ccccc1)(C(F)(F)F)NC2=O (stereo unspecified)	-11	6	7	3.7	7937	4	-19
CCc1cc2c(=O)n(Cc3ccco3)c(SCC(=O)N(C)C3CCS(=O)(=O)C3)nc2s1 (stereo unspecified)	12	-12	-1	3.8	4170	-4	-2

2 entries from above in another layout.
> CN(C)c1ccc(C=NOC(=O)Nc2ccccc2Cl)cc1
  Sa ugtP lethal: 0; Mtb hypoxia inh: 1; Mtb hypoxia inh growth: 1; RN4220 kill: 9.9; Bead autofluor: /; BJeLR viability: /; PrP UTR inh: /
> COC(=O)C1=C(c2cccc(C#N)c2)CC2CCC1N2C(=O)N1CCCC1 (stereo unspecified)
  Sa ugtP lethal: 3; Mtb hypoxia inh: 10; Mtb hypoxia inh growth: 9; RN4220 kill: 4.0; Bead autofluor: /; BJeLR viability: /; PrP UTR inh: /

New compounds follow
SMILES	Sa ugtP lethal	Mtb hypoxia inh	Mtb hypoxia inh growth	RN4220 kill	Bead autofluor	BJeLR viability	PrP UTR inh
Cc1ccc(Nc2nc(CSc3nnc(-c4ccccc4C)n3C)cs2)cc1	-5	11	5	4.5	2437	-8	-21
Cc1cccc(Oc2ncnc3oc(-c4ccccc4)cc23)c1C	9	5	11	2.5	4271	11	-11
O=C(c1ccccc1Cl)N1CCN(c2ccccn2)CC1	0	/	/	1.7	3893	-5	-13
O=C(Cc1ccsc1)Nc1cc(F)ccc1F	8	-7	10	3.2	3679	-9	-29
C(=NN1CCN(c2ccccn2)CC1)c1ccco1	7	-1	5	4.7	/	/	/
CSCCC(NS(=O)(=O)c1ccccc1)C(=O)OCc1cc(=O)oc2cc(O)ccc12 (stereo unspecified)	/	/	/	/	?	-7	-4
Cn1c(CNc2ccc(Cl)cc2)nnc1SCc1ccccc1	-3	9	3	-7.8	3339	-4	-1
Cc1ccc(N2C(=O)C(Cl)=C(NCCO)C2=O)c(C)c1	-1	1	2	3.0	3866	-8	-7
O=C(CSc1nnc(SCc2ccccc2)s1)N/N=C/c1c[nH]c2ccccc12	/	/	/	/	3916	-18	-24
COc1ccc(-c2csc(NC(=O)CSCc3c(C)noc3C)n2)cc1OC	-4	-7	-28	-5.7	/	2	-6
COc1ccc(NC(=S)NC(=O)Cc2ccccc2)cc1	41	-4	6	2.1	3085	-6	-45
CCOc1ccc(-n2c(=O)c3c4c(sc3n(CC(=O)NCC3CCCO3)c2=O)CCC4)cc1 (stereo unspecified)	21	-3	5	6.5	4474	8	-9
COc1ccc(N2CCN(C(CNS(=O)(=O)c3cc(F)ccc3F)c3cccnc3)CC2)cc1 (stereo unspecified)	-3	-3	11	-5.7	2784	-2	-12
COc1ccc(OC)c(NC(=S)NCc2ccc(S(N)(=O)=O)cc2)c1	2	0	2	0.7	4166	7	-15
Nc1ccc(Cc2nc3cc4ccccc4cc3[nH]2)cc1	-2	18	12	7.8	/	10	/
Cc1cc(C)n2cc(CSc3nnnn3-c3ccccc3C)nc2n1	-5	/	/	1.6	3762	4	-13
Nc1cc2c(cc1Br)-c1ccc(F)cc1C2=O	3	3	10	1.4	4121	/	-18
Cc1cccc(-n2c(O)c(C=Nc3ccccc3-c3n[nH]c(=S)[nH]c3=O)c3ccccc3c2=O)n1	0	-8	11	3.5	4679	-2	-8
C=CCn1c(O)c(C(C)=NCc2cc(OC)cc(OC)c2)c(=O)[nH]c1=O	6	/	/	0.6	4258	13	5
CCc1ccc(C(C)=NNC(=O)c2ccccn2)cc1	-2	-5	-1	3.1	/	/	/
O=C1CCCN1CCCN1C(=O)N[C@@H](Cc2ccccc2)C1=O	5	5	3	5.6	10248	-10	-23
Cc1ccnc2nc(C(=O)OCC(=O)NCCc3ccccc3)nn12	1	0	7	1.2	2286	-2	13
Cc1cc(NS(=O)(=O)c2ccc(NC(=O)CSc3nnc(-c4ccco4)n3C)cc2)nc(C)n1	/	/	/	/	2489	1	-9
C[C@@]12C(=O)N(Cc3ccccc3)CC(=O)N1C1c3ccccc3OCC1C2c1ccccc1 (stereo partly specified)	-16	-9	0	-4.1	/	/	/
CCc1cc2c(NC3CCCC3)ncnc2s1	-4	11	9	6.5	3520	10	-1
CCOc1cccc2sc(N(CCCN(C)C)C(=O)c3ccc(S(=O)(=O)N4CCc5ccccc5C4)cc3)nc12	9	7	0	-0.3	4388	-2	6
CCOC(=O)Cc1csc(/N=C/c2c(O)n(-c3ccc(C)c(C)c3)c(=O)c3ccccc23)n1	-3	6	6	6.7	2131	-15	4
